MenB inh = inhibitors of Mycobacterium tuberculosis MenB enzyme; AID 540299; actives 0.43% (n = 100,000); MenB enzyme assay, absorbance read-out; some hits fall short of the stated cut; inhibition, %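 (about 12 µg/mL by stock and volumes)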; P9WNP5;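 active = mean of two replicates above 30%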;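 note: 0% = no compound and 100% = wells with inactive enzyme; the first replicate is given; strong numbers were not always called active; inactives centre near -10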
Target sequence (P9WNP5 whole entry, looked up): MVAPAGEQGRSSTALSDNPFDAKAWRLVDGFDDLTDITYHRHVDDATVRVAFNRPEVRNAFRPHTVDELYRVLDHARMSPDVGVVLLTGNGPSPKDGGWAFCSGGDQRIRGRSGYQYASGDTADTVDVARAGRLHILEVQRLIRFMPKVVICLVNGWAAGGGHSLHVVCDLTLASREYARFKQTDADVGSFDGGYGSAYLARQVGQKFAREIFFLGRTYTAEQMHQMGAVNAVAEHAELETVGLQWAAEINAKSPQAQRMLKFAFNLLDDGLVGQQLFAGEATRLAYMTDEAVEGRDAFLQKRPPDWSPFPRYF
Polio RdRp inh = inhibitors of poliovirus RNA polymerase binding and polymerization; P03300; poliovirus polymerase elongation, fluorescence polarization; stronger effect = lower value; % elongation, % (compound at 16.7 µg/mL); actives 0.66% (n = 150,000); in the data active = % elongation below about 90%; note: some results filed as inactive read as strong as hits
Target sequence (P03300 1749-2209 limits assumed): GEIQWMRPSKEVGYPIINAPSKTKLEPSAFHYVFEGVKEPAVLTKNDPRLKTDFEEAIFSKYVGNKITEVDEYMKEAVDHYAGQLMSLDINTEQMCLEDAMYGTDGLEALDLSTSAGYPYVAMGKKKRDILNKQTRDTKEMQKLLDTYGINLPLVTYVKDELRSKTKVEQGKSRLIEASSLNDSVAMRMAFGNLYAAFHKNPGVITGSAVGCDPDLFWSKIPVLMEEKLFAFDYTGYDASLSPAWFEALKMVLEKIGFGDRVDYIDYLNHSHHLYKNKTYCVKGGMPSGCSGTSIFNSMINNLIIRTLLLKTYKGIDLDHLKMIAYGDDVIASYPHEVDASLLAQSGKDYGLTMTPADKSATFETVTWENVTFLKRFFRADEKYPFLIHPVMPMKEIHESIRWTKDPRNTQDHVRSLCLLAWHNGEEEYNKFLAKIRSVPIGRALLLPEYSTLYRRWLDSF
Mtb MbtI inh = inhibitors of Mycobacterium tuberculosis siderophore enzyme MbtI; P9WFX0; purified MbtI enzyme, fluorescence intensity read-out; inhibition, %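 (about 17 µg/mL by stock and volumes)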; actives 0.89% (n = 100,000);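 active = above 50% in both replicates, above 80% if mildly self-fluorescent; inactive = the rest, strongly fluorescent compounds included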;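 note: 0% = mean of negative and 100% = mean of positive controls; one replicate is shown; some compounds called inactive have numbers as strong as hits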
Polio RdRp inh intensity = further read-out of Polio RdRp inh, marked with its call; % elongation; measured here: total intensity read-out; formula for this scale not given here;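 total fluorescence in place of polarization; lower means less elongation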
* hit, by the source's call; i = inactive; · = not tested or not shown; & = joins results of further samples. Random draw from the library. About 1.7% of those tested had a hit in this group.

SMILES	MenB inh	Polio RdRp inh	Polio RdRp inh intensity	Mtb MbtI inh
CC1=NN(Cc2ccccc2Cl)C(=O)C1	-82	99	106	-7
O=C(CN1CCC(C(=O)Nc2ccccc2)CC1)NN1C(=O)NC2(CCCCC2)C1=O	-18	102	108	-8
CN1CCC[C@@H]1CCO[C@](C)(c1ccccc1)c1ccc(Cl)cc1	-15&3	102&102	100&101	-9&-15
Fc1ccc(-c2[nH]ncc2CN2CCN(Cc3ccccc3)CC2)cc1	21	107	106	6
COc1ccc2c(c1)C(C)=CC(C)(C)N2C(=O)CN1C(=O)CCC1=O	4	104	96	·
Cc1ccc2c(c1)c1c3n2CNCC3CCC1 (configuration not stated)	-7	102	102	108
Cc1cc(C)n2ncc(C(=O)NCCC3=CCCCC3)c2n1	-3	103	103	-158
OC1CCNC2CCCCC12 (configuration not stated)	-11	100	100	-8
O=C1OCCC1Sc1ncnc2ccccc12 (configuration not stated)	-9	101	121	-7
O=C(O)C(Cc1cnc[nH]1)N1C(=O)C2C3c4ccccc4C(c4ccccc43)C2C1=O (configuration not stated)	-3	101	103	-4
CNC(=O)c1ccsc1NC(=O)c1ccc(S(C)(=O)=O)cc1	-45	98	106	2
O=C(NCCC1=CCCCC1)c1cnsn1	-11	99	101	·
Cc1ccc(S(=O)(=O)Nc2ccc(-c3csc(-c4ccccc4)n3)cc2)cc1	-22	100	102	4
O=C(CSc1nnc(-c2ccccn2)c(-c2ccccn2)n1)c1ccc(N2CCCC2=O)cc1	-27	102	103	8
Cc1ccc2nc(-c3ccc(S(=O)(=O)N(C)C)cc3)cn2c1	·	100	103	98
O=C(c1cnn2c(C(F)(F)F)cc(-c3ccccc3)nc12)N1CCN(c2ccccc2)CC1	0	100	102	-21
CCCc1nc(N)c(C#N)c(-c2ccc(F)cc2)c1CC	-23	104	103	-50
c1ccc(COC2CCNCC2)cc1	-41	102	103	-1
CC(=O)Nc1ccc(NC(=O)C(Cc2ccccc2)NC(=O)C2CCCCC2)cc1 (configuration not stated)	2	98	94	-2
CCCN1CC2(COC)CC[C@H](OC)[C@@]34CC[C@H](COC)[C@@H](O)C[C@@](C)(O)C(O)([C@@H](OC)[C@H]23)[C@H]14	-5	109	113	·
CN1CC=C(/C=C/C2=CC[C@H]3C[C@@H]2C3(C)C)CC1	-21	100	108	2
O=C(CC1N=C2c3ccccc3N=C(SCc3ccccc3F)N2C1=O)NC1CCCCC1 (configuration not stated)	3	101	103	77
NCCCCCc1nnc(SCC(N)=O)o1	-48	104	102	-1
CC1(C)NCS[C@H]1C(=O)O	-12	105	107	-3
COc1cccc2[nH]ccc12	8	102	104	-14
c1ccc(Nc2nc(-c3ccncc3)cs2)cc1	-4	102	101	2
Cc1cc(C(=O)N2CCC(C)CC2)c(C)n1-c1ccc(F)cc1	-22	110	113	-10
CC1CC(C)CN(c2c3c(nc4cc(-c5ccc(F)cc5)nn24)CCC3)C1 (configuration not stated)	-18	102	103	8
O=C(COC(=O)c1ccc(Oc2ccccc2)cc1)NCc1ccccc1	·	102	99	-4
CCN(Cc1ccccc1)C(=O)CSc1nc2ccccc2c2nc3ccccc3n12	3	102	103	7
S=c1nc[nH]c2c1sc1nc(N3CCOCC3)c3c(c12)CCCC3	-44	96	100	-6
CN(CCOc1ccccc1)CCOc1ccccc1	-15	101	88	-7
CCCNC(=O)c1ccc(OCC)cc1	-3	99	106	·
O=C(NC(N1CCOCC1)(C(F)(F)F)C(F)(F)F)c1ccccc1	-4	104	102	·
CC1(C)CC(=O)C(N=Nc2ccccc2C(F)(F)F)=C(O)C1	-55	102	106	8
N#Cc1c(-c2ccccc2)oc2c1C(=O)c1ccccc1C2=O	-14	101	100	12
CCCN(CC1CC1)C(=S)Nc1cccc(C)c1C	-5	106	109	·
CCN(CC)c1nc(SCCOC(=O)Nc2ccccc2)nc(N(CC)CC)n1	-25	101	100	-3
CCn1cc(C(=O)Nc2ccccc2Br)c(=O)c2cc(F)c(N3CCN(C(C)=O)CC3)cc21	2	97	107	-7
CCc1nc(N)c(C#N)c(-c2ccccc2)c1C	-20	102	105	·

Compounds listed so far containing sulfur, in the order listed:
SMILES	MenB inh	Polio RdRp inh	Polio RdRp inh intensity	Mtb MbtI inh
O=C1OCCC1Sc1ncnc2ccccc12 (configuration not stated)	-9	101	121	-7
CNC(=O)c1ccsc1NC(=O)c1ccc(S(C)(=O)=O)cc1	-45	98	106	2
O=C(NCCC1=CCCCC1)c1cnsn1	-11	99	101	·
Cc1ccc(S(=O)(=O)Nc2ccc(-c3csc(-c4ccccc4)n3)cc2)cc1	-22	100	102	4
O=C(CSc1nnc(-c2ccccn2)c(-c2ccccn2)n1)c1ccc(N2CCCC2=O)cc1	-27	102	103	8
Cc1ccc2nc(-c3ccc(S(=O)(=O)N(C)C)cc3)cn2c1	·	100	103	98
O=C(CC1N=C2c3ccccc3N=C(SCc3ccccc3F)N2C1=O)NC1CCCCC1 (configuration not stated)	3	101	103	77
NCCCCCc1nnc(SCC(N)=O)o1	-48	104	102	-1
CC1(C)NCS[C@H]1C(=O)O	-12	105	107	-3
c1ccc(Nc2nc(-c3ccncc3)cs2)cc1	-4	102	101	2
CCN(Cc1ccccc1)C(=O)CSc1nc2ccccc2c2nc3ccccc3n12	3	102	103	7
S=c1nc[nH]c2c1sc1nc(N3CCOCC3)c3c(c12)CCCC3	-44	96	100	-6
CCCN(CC1CC1)C(=S)Nc1cccc(C)c1C	-5	106	109	·
CCN(CC)c1nc(SCCOC(=O)Nc2ccccc2)nc(N(CC)CC)n1	-25	101	100	-3

Later entries:
SMILES	MenB inh	Polio RdRp inh	Polio RdRp inh intensity	Mtb MbtI inh
Cc1cccc(Nc2ccncc2S(=O)(=O)NC(=O)NC(C)C)c1	-5&-9	100&101	100&101	0&-3
O=C(Oc1ccc(-c2nnco2)cc1)C1=CC=CN2CCS(=O)(=O)N=C12	11	100	106	102
CN(C(=O)COC(=O)c1cnc(Cl)c(Cl)c1)c1ccccc1	·	101	102	-9
Cc1ccc(C(=O)COC(=O)Cc2ccccc2)cc1	·	102	102	-2
O=C(Cc1ccccc1)Nc1ccc(-c2cn3cccnc3n2)cc1	7	102	111	109
COc1cc2c(cc1OC)C1N(CC2)C(C(=O)c2cccs2)=NN1c1ccccc1 (configuration not stated)	8	104	108	44
CC1OCN(c2ccc(OC(F)(F)F)cc2)Cn2c1nc1ccccc12 (configuration not stated)	-25	100	100	0
CCNc1ccc(OC)cc1	-13	102	104	-1
Cc1ccc2nc(SCc3ccccc3C#N)[nH]c2c1	-7	107	104	8
CC1OS(=O)OC1(c1ccccc1)c1ccccc1 (configuration not stated)	-16	89*	97*	·
O=C(O)CCCc1ccc(/C=N/O)s1	-36	103	104	4
NC1=NC(=O)CC(C(=O)Nc2ccc(Br)cc2)S1 (configuration not stated)	3	101	97	14
COc1ccc(NC(=O)C(CC(C)C)NS(=O)(=O)c2ccc3c(c2)oc(=O)n3C)cc1 (configuration not stated)	-13	103	101	-10
COC(=O)C1=CN(C23CC4CC(CC(C4)C2)C3)C=C(C(=O)OC)C1c1cccc(OC)c1	-15	102	97	11
COc1cc(OC)cc(C(C)(C)OC(=O)N2CCC[C@H]2C(=O)O)c1	-2	100	100	6
CCC1CCC(N(CC)CCN(C)C)CC1 (configuration not stated)	-4	101	99	5
CCCCCCCCCCCCC/C=C/[C@@H](O)[C@@H](N)CO	1	103&101	104&103	-11
CCc1ccc(NC(=O)Cn2nc(CC)n3c(cc4cc(C)ccc43)c2=O)cc1	-3	101	103	0
COC(=O)c1nn(C)c(=O)c2ccccc12	0	98	103	22
NC(=S)NCCc1ccccc1	-50	86*	87*	83*
Cc1cccc(C)c1NC(=O)CS(=O)CC(=O)Nc1ccc(F)c(F)c1 (configuration not stated)	-24	102	105	-9
O=S1(=O)CCC(SSC2CCS(=O)(=O)C2)C1 (configuration not stated)	-11	103	107	51
Cc1cc2oc(=O)cc(Cn3nnc(-c4ccc(F)cc4)n3)c2cc1C	-4	104	109	-1
CC(Sc1nc(N)cc(=O)[nH]1)C(=O)Nc1nc2ccccc2s1 (configuration not stated)	8	100	99	6
O=C(CSCC(=O)N1CCCCC1)Nc1nc(-c2cccs2)cs1	-26	101	100	14
CC(C)c1ccc(NC(=S)N2CCCC(c3ccc(F)cc3)=N2)cc1	-13	103	108	1
Cc1nn(-c2ccccc2)c2sc(C(=O)NCc3cccnc3)cc12	-10	99	102	i
CN1CCN(C2=NC(C(=O)Nc3ccccc3)CC(=O)N2)CC1 (configuration not stated)	-11	99	98	9
CCc1ccc(NC(=O)CCNS(=O)(=O)c2ccc3c(c2)CC(C)N3C(C)=O)cc1 (configuration not stated)	-12	100	103	-10
Cc1nc(C(F)(F)F)ccc1-c1nnc(SCCCN2C(=O)c3ccccc3C2=O)o1	-18	111	117	-15
NN1C(=O)CSC1=Nc1ccccc1	-38	102	103	-2
Cc1ccc(-c2noc(CN(C)C(=O)CCN3C(=O)C4CC=CCC4C3=O)n2)cc1 (configuration not stated)	5	102	102	-4
CC1CCC(NC(=O)CSc2ccc(S(=O)(=O)N(C)C)cn2)CC1 (configuration not stated)	-8	106	102	4
Cc1csc(C(C#N)C(=O)CSc2nc(-c3ccccc3)c(-c3ccccc3)o2)n1 (configuration not stated)	-49	112	119	-2
CN(CC1COc2ccccc2O1)C(=O)/C=C/c1cccs1 (configuration not stated)	-11	100	105	-2
O=C(NCc1cccc(C(F)(F)F)c1)C1CCN(c2ncccn2)CC1	-14	104	101	8
O=c1c2ccccc2n2c(-c3ccccc3)nnc2n1CCc1ccccc1	-7	104	107	-5
Cc1ccc(S(=O)(=O)NCc2ccc(C(=O)N3CCN(c4ccccn4)CC3)cc2)cc1	15	100	95	19
N#Cc1ccccc1NC(=O)COC(=O)c1ccc2c(c1)OCCO2	-8	108	109	-4
C/C(=N\N(C=O)c1ccc(C(=O)N2CCOCC2)cc1)C(=O)c1ccccc1	-84	99	103	-5
CC1(C)C2CC=C(COCC(O)CN3CCN(S(=O)(=O)c4ccccc4)CC3)C1C2 (configuration not stated)	-12	102	102	-3
COc1cc2c(cc1OC)C1C(C(=O)N(C)C3CCCCC3)c3ccccc3C(=O)N1CC2 (configuration not stated)	6	98	100	7
CCOc1ccc(/C=N/O)cc1	26*	104	96	10
Cc1cc(C)c2[nH]c(=O)c(C(c3nnnn3C(C)(C)C)N(CCc3ccc(F)cc3)Cc3ccco3)cc2c1 (configuration not stated)	1	100	101	26
CCC1=NN(C(=O)Cc2ccccc2)C(O)(c2ccccc2)C1 (configuration not stated)	-8	101	100	-21
CSc1c[nH]n(-c2ccccc2)c(=O)c1=O	-4	98	102	78*
CCCCn1c(N)c(N2CCOCC2)c(=O)n(CC(=O)Nc2ccc(S(=O)(=O)N(CC)CC)cc2)c1=O	-8	104	112	-24
CC1(C)CC(=O)C2=C(C1)OC(N)=C(C#N)C21CCN(Cc2ccccc2)CC1	-7	111	142	·
C/C(=N\NC(N)=O)C1CC(CC(C)C)C(=O)O1 (configuration not stated)	33	102	102	-7
CC1(C)C=C(NCC2CCCO2)CC(=O)C1 (configuration not stated)	-10	100	104	·
Following part
SMILES	MenB inh	Polio RdRp inh	Polio RdRp inh intensity	Mtb MbtI inh
Cc1nnc(SCC(=O)O)s1	1	104	105	·
CCOc1ccc(-c2nnc(NC(=O)C3CCN(c4ncnc5sc(C)c(C)c45)CC3)o2)cc1	-12	99	103	3
CN(C)CC/C=C1\c2ccccc2COc2ccccc21	-1	102	102	-3
Cc1cc(C(=O)NN)nn1-c1c(Cl)cc(Cl)cc1Cl	4	100	103	1
COc1ccc(C(=O)COC(=O)c2ccco2)cc1OC	-19	101	102	-12
CSc1sc(C(=O)NN=NC(C)C)c2c1C(O)CCC2 (configuration not stated)	6	101	105	11
Cc1ccccc1-c1ocnc1C(=O)NCc1ccc(C(F)(F)F)cc1	9	102	102	-1
